# Compound activity (PubChem)
# VACV Venus inh = inhibitors of vaccinia virus (Venus reporter); Vaccinia virus Venus reporter expression, fluorescence; Potency, µM (series often up to 36.5 µM), for inactives: at the top dose activity change, negative = inhibition, hits mostly inhibitors; 0.46% of 330,000 active; active means well fitted inhibition curve with a large enough effect; inconclusive means small, poorly fitted or top-dose-only effect; inactive means no such curve, though single readings can be large or run the other way; tested in A549 cells; also: nearly all actives have a fitted effect of over 30% in size; inactives centre near -10
# VACV mCherry inh = vaccinia inhibition (mCherry reporter). AID 720579. Vaccinia virus mCherry reporter infection, fluorescence; about a quarter of the inactives have no number. Potency, µM (series often up to 36.5 µM), without a hit: top-dose activity change, negative = inhibition, actives largely listed as inhibitors. 0.63% of 310,000 active; active = well fitted inhibition curve with a large enough effect; inconclusive = small, poorly fitted or top-dose-only effect; inactive = no such curve, though single readings can be large or run the other way; tested in A549 cells; also: nearly all actives have a fitted effect of over 35% in size; inactives centre near -10
# Starred values were filed as active, the others as inactive; i = inactive; ? = inconclusive; · = no result given; & = joins results of further samples; [ ] = remark or other dose. % is scaled to controls: 0 for no effect and ±100 for the full control effect; potency is read from the fitted curve at half-maximal effect.
SMILES,VACV Venus inh,VACV mCherry inh
COc1ccccc1-c1cn[nH]c1-c1ccc(OCc2ccc([N+](=O)[O-])cc2)cc1O,-6%,-16%
CC(=O)Nc1nc2ccc(S(=O)(=O)N3CCCCC3)cc2s1,-3%,-13%
COc1ccc(S(=O)(=O)N2CCOC2CNC(=O)C(=O)NCc2ccco2)cc1 (stereo not given),-9%,i
Cn1cc(NC(=O)CCl)cn1,?,?
CCOc1ccc(CCNC(=O)C2CCCN(c3nnc(-n4cccc4)s3)C2)cc1OCC (stereo not given),-4%,-3%
COc1ccc(NC(=O)CSc2oc(-c3ccc(F)cc3)nc2S(=O)(=O)c2ccc(C)cc2)c(OC)c1,?,-19%
CCOc1ccc(-n2c(O)c(C=NCCN3CCNCC3)c(=O)[nH]c2=O)cc1,-8%,-9%
CCOC(=O)/C(C#N)=C/Nc1cc(OC)ccc1OC,-5%,-15%
CN(Cc1ccccc1)c1nnc(N)s1,0%,-7%
CCC1CCCCN1P(=O)(c1ccc(C)o1)C(C)(C)C (stereo not given),-5%,-14%
CCc1nc2c(OCc3ccc(C(F)(F)F)cc3)cccn2c1N(C)C(=O)c1ccco1,-13%,12%
Cc1ccc(-n2nnc3c(=O)n(Cc4cccc(C)c4)cnc32)cc1,-9%,-15%
Cn1c(SCC(=O)NC(C)(C)C)nnc1-c1ccc(C(C)(C)C)cc1,-11%,i
CCN1CCN(c2nc(-c3cccnc3)nc3ccccc23)CC1,-7%,-7%
Brc1ccc(OCCCN2CCOCC2)cc1,-23%,·
CCC(=O)N1CCCc2cc(S(=O)(=O)N3CCC(N4CCCCC4)CC3)ccc21,-8%,-22%
O=C(NCc1ccccc1OC(F)(F)F)C1CCC(=O)N(CCc2ccccn2)C1 (stereo not given),-9%,-18%
CCOc1ccc(NC(=O)C(C)n2c(=O)cc(C)c3c(C)nn(-c4ccccc4)c32)cc1 (stereo not given),-8%,-12%
CCCCC/C=C\C/C=C\C/C=C\C=C\[C@@H](O)CCCC(=O)O,-9%[0.293 µM],-14%[0.293 µM]
COc1ccc2c(c1)CO[C@]21O[C@H](CCO)C[C@H](O)[C@H]1O,2%,9%
O=S1(=O)N=C(SCCO)c2ccccc21,-13%,·
CCC(C)(C)NC(=O)C(c1cccn1C)N(Cc1ccccc1)C(=O)Cn1nnc2ccccc21 (stereo not given),-9%,-20%
CC1CCN(S(=O)(=O)c2cccc(C(=O)NC3CCS(=O)(=O)C3)c2)CC1 (stereo not given),-17%&-9%,-9%
Cc1ccc(S(=O)(=O)NCC(=O)N(CC2CCCO2)C(C(=O)NCC2CCCO2)C(C)C)cc1 (stereo not given),6%,-28%
OCCNc1ccc(Cl)cc1,-12%,·

# Continued:
SMILES,VACV Venus inh,VACV mCherry inh
O=C(Cc1ccccc1Cl)Nc1cc(S(=O)(=O)N2CCOCC2)ccc1N1CCOCC1,-17%,-1%
Cc1ccc(OCC(=O)Nc2ccc(Cl)cc2)c(-n2nc3ccccc3n2)c1,0%,i
COc1cc2c(cc1OC)C(C)N(S(=O)(=O)c1cccs1)CC2 (stereo not given),-12%,i
CC(=O)C(=[N+]=[N-])C(=O)NCc1ccccc1,19%,·
O=C(N/N=C/c1c[nH]c2ccccc12)c1cccs1,-27%,-17%
COc1cc([N+](=O)[O-])ccc1NC(=O)Nc1nc2c(s1)CCCC2,-18%,i
O=C(NC1CCCC1)C(c1ccccc1)n1c(-c2cccs2)nc2ccccc21 (stereo not given),0%,14%
O=S(=O)(O)c1cnccc1Nc1cccc(C(F)(F)F)c1,-10%,i
CCOC(=O)C1(CCc2ccccc2)CCN(Cc2cccc3c2OCO3)CC1,-13%,-21%
Cc1cc2c(cc1S(=O)(=O)N(C)CC(=O)Nc1cccc(C#N)c1)OCC(=O)N2,4%,5%
CN(C)C1(CNC(=O)COc2ccc([N+](=O)[O-])cc2)CCCCC1,-7%,-1%
O=C(NCc1ccccc1)c1cc(C2CCCN(S(=O)(=O)c3ccccc3)C2)on1 (stereo not given),-6%,2%
O=C(CNc1cc(S(=O)(=O)N2CCCC2)ccc1OCC(F)(F)F)Nc1ccc(SC(F)F)cc1,?,?
O=C1N(Cc2ccccc2)CCCC12CCCN(Cc1ccccc1)C2=O,5%,·
CCCCn1c(N)c(N(CCOC)C(=O)c2cc3c(s2)CCCCC3)c(=O)[nH]c1=O,-14%,i
Cc1ccc(C(=O)OCC(=O)NC(=O)c2cccn2C)cc1,-6%,?
CCn1c(SCC(=O)N2CCOCC2)nnc1-c1cccs1,2%,-16%
CC(=O)c1cccc(NC(=O)c2ccc(N(Cc3ccccc3C)S(C)(=O)=O)cc2)c1,-22%,·
Oc1ccccc1-c1csc(-c2ccccc2)n1,-7%,-21%
CC(C)(C)C1CCC(=NNC(=O)c2cc(-c3ccccc3)n[nH]2)CC1 (stereo not given),0%,-28%
Cc1cc(C)n(-c2nc(NC(C)C)nc(NC(C)C)n2)n1,-15%,-17%
COc1ccccc1N(C)S(=O)(=O)c1ccc(C(=O)O)cc1,1%,i
CC1CCN(C(=S)Nc2ccc3nc4n(c(=O)c3c2)CCCCC4)CC1,-17%,12%
C#CCOCCOCCOCCNc1nc(N2CCN(C(=O)[C@H](CCCN=C(N)N)n3cc(C(N)[C@H](C)CC)nn3)CC2)nc(N2CCN(C(=O)[C@H](CC(N)=O)n3cc(C(N)[C@@H](C)CC)nn3)CC2)n1 (stereo not given in full),-15%,i
Fc1ccc(-c2nnc(SCc3ncc(-c4ccccc4)o3)n2CC2CCCO2)cc1 (stereo not given),-15%,-3%

# 2 records picked at random from the list so far, as already listed:
SMILES,VACV Venus inh,VACV mCherry inh
O=S(=O)(O)c1cnccc1Nc1cccc(C(F)(F)F)c1,-10%,i
Cc1cc(C)n(-c2nc(NC(C)C)nc(NC(C)C)n2)n1,-15%,-17%

# More entries follow:
SMILES,VACV Venus inh,VACV mCherry inh
CC1CCN(c2ccc3c(c2)S(=O)(=O)c2cccc(C(=O)NCc4ccc(F)cc4)c2C3=O)CC1,202%[activator],?
O=C(OCc1ccco1)c1ccc2c(c1)N(Cc1cccc(F)c1)C(=O)c1ccccc1S2,5%,-3%
Cc1ccc(C(=O)OCC(=O)Nc2sc3c(c2C#N)CCCC3)cc1NC(=O)c1ccco1,-8%,-14%
Clc1cccc(-c2noc3ncnc(NC4CCCCC4)c23)c1,-16%,-13%
CCOC(=O)c1c(C)[nH]c(CCC(=O)NCc2ccc(F)cc2)c1C,-12%,-5%
CC(C)[C@H](NC(=O)N1c2ccccc2NC(=O)[C@@H]1C(C)C)C(=O)N[C@@H](C(=O)O)c1ccccc1,-6%,-1%
Cc1nnc(-c2ccccc2)nc1N1CCOCC1,-1%,-4%
CCOC(=O)c1c(NC(=O)c2nc3n(n2)C(C(F)F)CC(C)N3)sc2c1CCCC2 (stereo not given),-11%,i
Cc1ccccc1NC(=O)CCC(=O)N1CCSc2ccccc21,-7%,-11%
COc1ccc(NC(=O)CS(=O)(=O)c2ccccc2)cc1,-18%,-21%
O=C(CSc1nc2ccccc2n1-c1ccccc1)NCC1CCCO1 (stereo not given),-29%,·
Cc1cc(NC(=O)CCC(=O)N(C(C(=O)NC(C)(C)C)c2ccccc2Cl)C(C)(C)C)no1 (stereo not given),?,-13%
Cc1cc(-c2ccccc2)n2ncc(C#N)c2n1,-18%,-8%
CC1CCCC(NC(=O)COC(=O)[C@@H]2CC(O)CN2S(=O)(=O)c2ccc3c(c2)OCCO3)C1C (stereo not given in full),-16%,-15%
Cc1ccc(CN2CCCN(Cc3c(C)cc(C)cc3C)S2(=O)=O)cc1,-3%,-6%
Cc1ccc(/C=N/N=C2/NC(=O)C(CC(=O)Nc3ccc(Cl)cc3)S2)o1 (stereo not given),-9%,i
C=CCn1c(SC(C)C(=O)NCc2ccc3c(c2)OCO3)nnc1C1CCCCC1 (stereo not given),-3%,-13%
O=C(NC1CC(=O)N(c2cccc(F)c2)C1)c1cc2ccccc2o1 (stereo not given),-5%,-6%
CCOC(=O)Cn1c(N2CCOCC2)nc2c1c(=O)[nH]c(=O)n2C,-14%,-18%
Cc1ccc(-n2cc(C(C)(C)C)[nH]c2=S)cc1,-8%,-14%
Cc1ccc(S(=O)(=O)NNC(=O)c2ccccc2O)cc1,-15%,-10%
O=C(N/N=C/c1ccc(-c2ccccc2[N+](=O)[O-])o1)c1cncc(Br)c1,?,?
CCC(C)(C)n1nnnc1C(c1cccs1)N1CCN(Cc2ccccc2)CC1 (stereo not given),-13%,-19%
CCOc1cc(OCC)cc(C(=O)N2CCC[C@H]2C(=O)N2CCC[C@H]2C(=O)NCc2ccc(F)cc2F)c1,5%,-3%
CC(CCC(=O)O)C1CCC2C3CC[C@H]4CC(O)CC[C@@]4(C)C3CC(O)[C@]12C (stereo not given in full),-12%,-13%

# Sorted by length of the SMILES (low to high): some entries from above.
SMILES,VACV Venus inh,VACV mCherry inh
O=C(CSc1nc2ccccc2n1-c1ccccc1)NCC1CCCO1 (stereo not given),-29%,·
CCOC(=O)Cn1c(N2CCOCC2)nc2c1c(=O)[nH]c(=O)n2C,-14%,-18%
Cc1ccc(C(=O)OCC(=O)Nc2sc3c(c2C#N)CCCC3)cc1NC(=O)c1ccco1,-8%,-14%

# Additional records follow:
SMILES,VACV Venus inh,VACV mCherry inh
Cc1cc(S(=O)(=O)N2CCN(c3ccccc3C)CC2)ccc1F,-9%,·
O=C(O)c1cc(NS(=O)(=O)c2ccc(NC3CCCCC3)c([N+](=O)[O-])c2)cc(C(=O)O)c1,-2%,-18%
COC(=O)c1ccc(C(C(=O)NC2CCCCC2)N(Cc2ccc(F)cc2)C(=O)Cc2cccs2)cc1 (stereo not given),-15%,i
Cc1ccc(C)c(N2CCN(C(=O)Cn3ncc4c(=O)oc5ccccc5c43)CC2)c1,-7%,-5%
Cc1noc(C)c1NC(=O)N(C)C[C@H]1OCc2cnnn2CCCC(=O)N([C@@H](C)CO)C[C@H]1C,-7%,?
CCCN(CCC)CC(O)Cn1c2ccccc2c2ccccc21 (stereo not given),-7%,-4%
C[C@@H]1CN([C@H](C)CO)C(=O)CCCn2nncc2CO[C@@H]1CN(C)S(C)(=O)=O,-16%,-13%
Cc1ccc(S(=O)(=O)N2CCOCC2)cc1C(=O)Nc1ccc(-c2cn3ccsc3n2)cc1,-30%,?
O=C(NCc1ccccc1)c1ccc(Cn2c(=O)c3cccn3c3cccnc32)cc1,-9%,-14%
O=C(Oc1ccc(F)cc1C(=O)/C=C/c1cccs1)c1cccc([N+](=O)[O-])c1,-26%,-9%
CCNC(=S)/N=C(\N)Nc1nc(C)c2cc(C)ccc2n1,?,?
COc1ccc(S(=O)(=O)N2CCC(C(=O)N[C@@H](C)C(=O)NCc3ccco3)CC2)cc1,-14%,i
O=C(Nc1cc2ccc(O)cc2oc1=O)c1ccccc1,-8%,-10%
CCOc1ccc(-c2cc(CCCC(=O)NCCc3ccc(SC)cc3)no2)cc1,2%,0%
CC1CCN(S(=O)(=O)c2ccc3c(c2)oc(=O)n3CC(=O)NCc2ccc3c(c2)OCO3)CC1,-24%,?
CCc1ccccc1NC(=O)CNC(=O)c1cn(Cc2ccccc2)nc1-c1cccnc1,-18%,i
Clc1ccc2nc(C3CCCCC3)c(Cc3ccccc3)n2c1,5%,i
CCOC(=O)N1CCN(C(=O)c2ccc3c(=O)n4c(nc3c2)CCCCC4)CC1,-12%,-2%
O=C(NNC(=S)Nc1cccc(C(F)(F)F)c1)c1cccc(Cl)c1,?,?
c1cnc(NCCSSCCNc2ncccn2)nc1,-18%,-7%
O=C(CSc1nc(-c2ccccc2)[nH]c1-c1ccccc1)Nc1ccc2c(c1)OCO2,-19%,-25%
COCCNC(=O)CSc1nc2cc3c(cc2c(=O)n1CCCC(=O)NCc1ccc2c(c1)OCO2)OCO3,-2%,0%
CSCC[C@H](NC(=O)C(C)Oc1ccc(Cl)cc1)c1nc2ccccc2[nH]1 (stereo not given in full),-24%,i
CN(C(=O)c1ccc(Cl)c(S(=O)(=O)N2CCOCC2)c1)c1ccccc1C(=O)O,-14%,i
CCN(CC)S(=O)(=O)c1cc(C(=O)Nc2cc(C)on2)c(Cl)cc1Cl,-5%,i

# Shown with tabs: 6 of the compounds above.
SMILES	VACV Venus inh	VACV mCherry inh
C[C@@H]1CN([C@H](C)CO)C(=O)CCCn2nncc2CO[C@@H]1CN(C)S(C)(=O)=O	-16%	-13%
Cc1ccc(S(=O)(=O)N2CCOCC2)cc1C(=O)Nc1ccc(-c2cn3ccsc3n2)cc1	-30%	?
O=C(NCc1ccccc1)c1ccc(Cn2c(=O)c3cccn3c3cccnc32)cc1	-9%	-14%
O=C(Oc1ccc(F)cc1C(=O)/C=C/c1cccs1)c1cccc([N+](=O)[O-])c1	-26%	-9%
CCNC(=S)/N=C(\N)Nc1nc(C)c2cc(C)ccc2n1	?	?
COc1ccc(S(=O)(=O)N2CCC(C(=O)N[C@@H](C)C(=O)NCc3ccco3)CC2)cc1	-14%	i

# New compounds follow
SMILES,VACV Venus inh,VACV mCherry inh
CCOc1ccc(NC(=O)c2ccc(F)c(S(=O)(=O)NCc3ccc4c(c3)OCO4)c2)cc1,?,?
CN(C)NC1CC(=O)N(c2ccccc2)C1=O (stereo not given),-14%,i
CC(C)NC(=O)C1CCN(C(=O)c2cnn(-c3ccccc3)c2-n2cccc2)CC1,-10%,-8%
Cc1ccccc1CS(=O)(=O)c1cn(CC(=O)N2CCOCC2)c2ccccc12,-5%,i
COc1ccccc1OCC(=O)Nc1ccccc1C(=O)Nc1cccc(C(=O)O)c1,-5%,i
Cc1ccc(C(=O)NCCc2ccc(Cl)cc2)cc1-n1c(C)nc2cccnc21,-2%,-10%
COc1ccc(OC)c(S(=O)(=O)Nc2ccccc2O)c1,-9%,-12%
O[C@@H]1CN(C2CCN(Cc3ccccc3)CC2)CC[C@H]1N1CCCCCC1,-6%,-1%
COc1ccc(NC(=O)CSc2nccn2C)c([N+](=O)[O-])c1,-10%,-9%
